MgrA DNA FP = S. aureus MgrA activity modulators, primary screen, biochemical, S. aureus Newman, fluorescence polarization. MgrA-DNA binding. inhibition, %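 (about 10 µg/mL by stock and volumes)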. 84,000 compounds, 0.13% hits;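 active means above 50% in either of two replicates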;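 further: 0% = protein plus DNA without compound and 100% = DNA alone without protein; higher means less MgrA bound to DNA so lower polarization; one replicate is shown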
S aureus helic = inhibitors of S. aureus replicative helicase, primary screen, biochemical, fluorescence unwinding readout; 120,000 compounds, 0.05% hits; purified S. aureus helicase, fluorescence unwinding assay; about half of the hits fall short of the stated cut; AID 485395, 2010; replicative DNA helicase (DnaC/DnaB), Staphylococcus aureus; inhibition, %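 (tested at about 80 µM)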;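 active means both duplicates at 50% or more, or one of them with a favoured structure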;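 further: 0% = mean of negative control wells and 100% = mean of positive control wells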
* hit, by the source's call; . = no result given; & = joins results of further samples.

item	canonical_smiles	MgrA DNA FP	S aureus helic
1	O=C(O)c1ccc(CN2CCS(=O)(=O)CC2)cc1	-5.0	.
2	COc1ccc(Oc2nc(C)cc(C)c2C#N)cc1	0.7	7.0
3	Cc1oc(-c2ccc(Cl)cc2)nc1CS(=O)CC(=O)NCCN1CCCC1 (stereo not drawn)	.	21.0
4	Cc1ccccc1NC(=O)C(C)Sc1nnc(-c2ccccc2C)o1 (stereo not drawn)	-0.2	3.0
5	CN(C)c1nc(OCCOC(=O)Nc2ccccc2)nc(N(C)C)n1	4.6	.
6	O=C(Nc1ccc2c(c1)OCCO2)N1C=CC(C(F)(F)F)=NCC1	6.3	.
7	CCSc1nc(C)nc(N)n1	-2.8	.
8	Nc1nc(CSC2CCS(=O)(=O)C2)nc(NCCc2ccccc2)n1 (stereo not drawn)	0.4	2.0
9	CCC(=O)Nc1ccc(-c2nc3cccnc3s2)cc1	-1.3	6.0
10	O=C(c1cnc2ccccn12)C(F)(F)SCc1c(Cl)cccc1Cl	1.4	.
11	CCn1c2ccccc2c2nnc(SCC(=O)NCc3ccco3)nc21	.	0.0
12	COc1ccc(C(C#N)c2ccc(C(=O)c3ccc(F)cc3)cc2)cc1 (stereo not drawn)	-0.7	.
13	O=c1n(CC(O)CN2CCCCC2)c(=O)n(CC(O)CN2CCCCC2)c(=O)n1CC(O)CN1CCCCC1 (stereo not drawn)	.	-37.0
14	Cn1c(N/C(=C\C(=O)c2cccs2)C(F)(F)F)nc2ccccc21	1.7	9.0
15	CSc1ccc(NC(=O)N(Cc2ccccc2)C(=O)CC#N)cc1	.	-40.0
16	COc1ccccc1C(C)NC(=O)c1ccc2nc[nH]c2c1 (stereo not drawn)	.	11.0
17	O=C(C1CC(O)CN1S(=O)(=O)c1ccc2ccccc2c1)N1CCc2ccccc2C1 (stereo not drawn)	.	0.0
18	O=C(OC(C(=O)NCC1CCCO1)c1ccc(F)cc1)c1ccco1 (stereo not drawn)	2.0	-5.0
19	Cc1ccc(C)n1-c1ccc(Br)cc1	2.6	.
20	COc1cccc(C(C(=O)NCC2CCCO2)N(CC2CCCO2)C(=O)CC2C(=O)c3ccccc3S2(=O)=O)c1 (stereo not drawn)	1.3	2.0

Reprinted from the part before: 3 compounds, then new ones.
item	canonical_smiles	MgrA DNA FP	S aureus helic
18	O=C(OC(C(=O)NCC1CCCO1)c1ccc(F)cc1)c1ccco1 (stereo not drawn)	2.0	-5.0
19	Cc1ccc(C)n1-c1ccc(Br)cc1	2.6	.
20	COc1cccc(C(C(=O)NCC2CCCO2)N(CC2CCCO2)C(=O)CC2C(=O)c3ccccc3S2(=O)=O)c1 (stereo not drawn)	1.3	2.0
21	O=c1[nH]c2ccccc2n1CCCSc1nnc(C2CCCCC2)o1	.	-2.0
22	O=C(NCCn1ccc2ccccc21)c1cccc2ccccc12	-0.2	4.0
23	CN(Cc1ccccc1)S(=O)(=O)c1ccc(N2CCCCS2(=O)=O)cc1	.	19.0
24	CC(=O)NN=C1CCC(C(C)(C)C)CC1 (stereo not drawn)	.	-3.0
25	CCn1c(N)nc2c1c(=O)[nH]c(=O)n2C	-2.0	16.0
26	Cc1nn(CCCC(=O)NCCc2ccccc2)c(=O)c2cc3sccc3n12	.	8.0
27	Clc1ccc(OCc2cn3cccnc3n2)cc1	.	-7.0
28	COc1ccc(C(=O)CSc2nc3ccccc3c(=O)[nH]2)cc1OC	1.9	.
29	CC1CCC(C(C)C)C(OC(=O)COC(=O)c2cc(=O)[nH]c(=O)[nH]2)C1 (stereo not drawn)	.	8.0
30	Cc1nc(O)c([N+](=O)[O-])c(=O)[nH]1	2.2	.
31	CCC(=O)N=c1sc2cc(OC)c(OC)cc2n1CCOC	.	7.0
32	COC(=O)Cn1nnnc1-c1ccc(Cl)cc1	-3.2	.
33	COc1ccccc1NC(=O)CC(c1ccccc1)c1ccc(C)cc1O (stereo not drawn)	0.3	4.0
34	O=C(/C=C/c1cccs1)N1CCCCC1c1nc2ccccc2s1 (stereo not drawn)	.	6.0
35	COc1cc2c3c(c1OC)-c1cc(OC(C)=O)ccc1CC3N(C(C)=O)CC2 (stereo not drawn)	-1.0	13.0
36	Cc1ncc(CSc2nc3ccc(C(F)(F)F)cc3[nH]2)c(CO)c1O	-1.0	.
37	CCc1ccc(NC(=O)Cn2c(=O)oc3ccccc32)cc1	1.5	14.0
38	O=C(COC(=O)C1CCCN1C1=NS(=O)(=O)c2ccccc21)Nc1ccc(F)cc1 (stereo not drawn)	.	15.0
39	NC(=O)CN(c1ccc(Cl)cc1Cl)S(=O)(=O)c1ccccc1	-2.0	5.0
40	Cc1noc(C)c1COc1cccc(C(=O)OC(C)C#N)c1 (stereo not drawn)	.	2.0

Next section
item	canonical_smiles	MgrA DNA FP	S aureus helic
41	O=C(NCCn1ccc2ccccc21)c1ccccc1	.	-3.0
42	CCOC(=O)Cn1cc(C#N)c2ccccc21	-1.2	-2.0
43	CC(O)c1nc2ccc(Cl)cc2[nH]1 (stereo not drawn)	0.8	.
44	COc1ccc(NC(=O)c2ccc(COc3ccc(C(C)C)cc3)o2)cc1	1.5	-7.0
45	CC(C)NC(=O)CSc1nc2ccccc2s1	.	0.0
46	CC(Sc1nc2c(cc1C#N)CCCCC2)C(=O)O (stereo not drawn)	1.6	9.0
47	NNC(=O)c1cc2c(s1)CCCCC2	.	13.0
48	O=C1CCCN2N=C(SCC(=O)NCc3ccccc3)SC2=N1	.	17.0
49	CCOC(=O)c1c[nH]c2c(F)cccc2c1=O	0.5	.
50	O=C(C1CC(=O)N(c2ccc3c(c2)OCCO3)C1)N1CCN(c2ccccc2)CC1 (stereo not drawn)	.	-4.0
51	Cc1c(Cl)cn2c(=O)cc(CN3CCN(Cc4ccc5c(c4)OCO5)CC3)nc2c1Cl	.	6.0
52	CCCSc1nnc(N)s1	0.2	13.0
53	Cc1sc2ncn(CC(=O)c3ccccc3)c(=O)c2c1C	5.8	8.0
54	COc1ccc2cc(-c3cc(C(F)(F)F)nc(N)n3)ccc2c1	0.2	.
55	NC(N)=NC(N)=Nc1ccccc1Br	-0.4	13.0
56	COC(=O)C1=C(C)OC(N)=C(C#N)C1c1ccc(C#N)cc1 (stereo not drawn)	-0.8	.
57	CCCc1c(C)c2ccc(OCC(=O)O)cc2oc1=O	.	12.0
58	CC(C#N)Sc1nnc(C2CCCCC2)n1N (stereo not drawn)	.	2.0
59	CCn1c(SCC(=O)N2CCC(C)CC2)nnc1-c1ccccc1O	.	-10.0
60	CN(C)c1scc(-c2ccccc2)c1C#N	-2.0	.

Next section; it opens with the four that closed the last part.
item	canonical_smiles	MgrA DNA FP	S aureus helic
57	CCCc1c(C)c2ccc(OCC(=O)O)cc2oc1=O	.	12.0
58	CC(C#N)Sc1nnc(C2CCCCC2)n1N (stereo not drawn)	.	2.0
59	CCn1c(SCC(=O)N2CCC(C)CC2)nnc1-c1ccccc1O	.	-10.0
60	CN(C)c1scc(-c2ccccc2)c1C#N	-2.0	.
61	CCc1nc2cccnc2n1-c1ccc(CC(=O)NCC2CCCO2)cc1 (stereo not drawn)	.	17.0
62	CNS(=O)(=O)c1ccc(Cl)cc1Cl	.	10.0
63	Cc1ccc(C(CC#N)C2CCOC(C)(C)C2)cc1 (stereo not drawn)	.	-2.0
64	O=S(=O)(c1cccc2nsnc12)N1CCN(C(c2ccccc2)c2ccccc2)CC1	.	27.0
65	CCOC(=O)c1cc(=O)c2ccc(OCc3ccccc3)cc2o1	-0.5	.
66	O=C(NCc1ccc(Cl)cc1)c1cccc(S(=O)(=O)N2CCCC2)c1	-2.6	4.0
67	COc1ccccc1C1C(C(C)=O)=C(C)N=c2s/c(=C\c3cc(OC)c(OC)c(OC)c3)c(=O)n21 (stereo not drawn)	4.0	.
68	O=C(O)C1CC2C=CCC(C1)C2=O (stereo not drawn)	0.7	6.0
69	COc1ccc(CCNC(=O)C(Sc2ccccc2N)c2ccccc2)cc1OC (stereo not drawn)	6.2	.
70	CCC1(C)Oc2ccc(NC(=O)c3cc(F)c(F)cc3Cl)cc2O1 (stereo not drawn)	-0.3	-14.0
71	O=c1[nH]c(C2CCCN(S(=O)(=O)c3cccc(Cl)c3)C2)nc2c1nnn2Cc1ccc(Cl)cc1 (stereo not drawn)	.	18.0
72	NS(=O)(=O)c1cc(Cl)c(NC(=O)CSC2CCCC2)c(Cl)c1	.	-6.0
73	O=C(Nc1cccc(F)c1)c1oc2ccccc2c1NC(=O)C1CCCC1	.	-4.0
74	O=C(OCC(=O)N1CCc2ccccc2C1)c1ccccc1O	1.1	15.0
75	O=C(O)Cc1sc(Nc2ccccc2)nc1-c1cccs1	.	-15.0
76	Cc1ccccc1CSCCC(=O)NC1CCCCC1	-0.2	-4.0
77	c1cc(CNC2CC2)ccn1	-2.5	-1.0
78	C=CCN1C(=O)c2ccc(C(=O)OCC(=O)c3cc(C)n(C)c3C)cc2C1=O	.	9.0
79	Cc1ccc(CN(C)CC(=O)Nc2cc(Cl)ccc2C#N)cc1	.	5.0
80	C=CCN(C(=O)c1cccc2c1SCCC2=O)c1ccccc1	0.1	4.0

(continued)
item	canonical_smiles	MgrA DNA FP	S aureus helic
81	C=CCc1ccccc1COCC(O)CN1CC(C)OC(C)C1 (stereo not drawn)	-1.8	3.0
82	Cc1nc(C(F)(F)F)ccc1NC(=O)/C=C/C(=O)O	-7.7	.
83	O=C(COCc1cc(-c2ccco2)on1)NCCN1CCOCC1	.	13.0
84	O=C(C=Cc1ccccc1)N1CCN(c2cccc(Cl)n2)CC1	0.5	.
85	CCOC(=O)N1CCC(NC(=O)CCS(=O)(=O)c2cc(Br)cc3c2N(C(C)=O)CC3)CC1	.	12.0
86	COc1ccc(C(=O)c2[nH]c(-c3ccc(OC)cc3)cc2-c2ccccc2)cc1	-1.6	0.0
87	NNC(=O)CNC(=O)C12CC3CC(CC(C3)C1)C2	.	8.0
88	O=C(CN1CCN(S(=O)(=O)c2cc(C(F)(F)F)ccc2Cl)CC1)N1CCc2ccccc2C1	.	6.0
89	Cn1ccsc1=NC(=O)c1ccc2c(c1)S(=O)(=O)c1ccccc1C2=O	.	-12.0
90	CCOCc1c(C(=O)Nc2cccc(C(=O)NC3CC3)c2)oc2ccccc12	.	-13.0
91	O=C1NN=C(c2ccccc2)/C1=C1\OC(c2ccccc2)=CS1	0.5	.
92	COc1ccc(Cl)cc1NC(=O)CN(C(=O)c1ccco1)C1CCCCC1	2.0	3.0
93	O=C(O)Cc1cc(C(F)(F)F)on1	-0.6	-21.0
94	COc1ccc(C2CC(=O)N(CC(=O)Nc3ccc4c(c3)OCO4)c3ccccc3S2)cc1OC (stereo not drawn)	-0.6	16.0
95	Cc1nc(N)sc1N=Nc1ccc(S(=O)(=O)N2CCOCC2)cc1	.	7.0
96	N#CCc1ccc(NC(=O)Cc2ccccc2)cc1	-0.1	0.0
97	O=C(O)c1ccc(NNC(=S)NCCN2CCOCC2)cc1	.	-2.0
98	CC(C)Cn1c(-c2ccncc2)n[nH]c1=S	0.8	10.0
99	COc1ccc(Cl)cc1NC(=O)CN(C)S(=O)(=O)c1ccc2c(c1)CCCC(=O)N2	.	-1.0
100	Cc1nc(-n2cc(F)c(=O)[nH]c2=O)c2nc(C)oc2n1	-2.5	-4.0

Four compounds drawn at random from those above:
item	canonical_smiles	MgrA DNA FP	S aureus helic
98	CC(C)Cn1c(-c2ccncc2)n[nH]c1=S	0.8	10.0
92	COc1ccc(Cl)cc1NC(=O)CN(C(=O)c1ccco1)C1CCCCC1	2.0	3.0
97	O=C(O)c1ccc(NNC(=S)NCCN2CCOCC2)cc1	.	-2.0
87	NNC(=O)CNC(=O)C12CC3CC(CC(C3)C1)C2	.	8.0

(next part)
item	canonical_smiles	MgrA DNA FP	S aureus helic
101	Cc1ccc(C(=O)Oc2ccc(C3SCCS3)cc2)cc1	-0.9	-1.0
102	CC1(C)CC(=O)C(C=NC2CCCCC2)=C(O)C1	.	7.0
103	COc1ccc(C2CC(=O)N(C)c3ccccc3S2)cc1OC (stereo not drawn)	.	5.0
104	CC(O)c1ccc(-c2ccc(CO)o2)cc1 (stereo not drawn)	.	8.0
105	CCc1nnc(NC(=O)CSc2nc(-c3ccccc3)cc(C(F)(F)F)c2C#N)s1	-0.2	11.0
106	CCSc1nnc(-c2c[nH]c3ccccc23)n1CCOC	-5.7	13.0
107	CCc1ccc(OCC(=O)NCCc2ccccc2)cc1	.	-14.0
108	CCOC(=O)c1nnc(-c2ccc(C(F)(F)F)cc2)o1	-0.2	.
109	Cc1cccc(-c2nc(CNC(=O)C3CCCO3)cs2)c1 (stereo not drawn)	-2.4	-3.0
110	CNC(=S)N1CCc2cc(OC)c(OC)cc2C1COc1ccc(OC)cc1 (stereo not drawn)	0.1	12.0
111	CN1CCN(NS(=O)(=O)c2ccc3ccccc3c2)CC1	2.7	-5.0
112	CCc1c(C(=O)OC)nnc2cc(C)nn12	0.7	.
113	O=C(NCC1CCCCN1)c1cc(OCC(F)(F)F)ccc1OCC(F)(F)F (stereo not drawn)	6.7&3.5	.
114	CNC(=S)Nc1cc(Cl)cc(Cl)c1	0.6	.
115	CC(C)S(=O)(=O)c1cnc(N)nc1N	-0.1	.
116	O=C1OCN2c3ccccc3C34OC12c1ccccc1N3COC4=O	.	2.0
117	COc1ccc(N=C2NC(=O)/C(=C\c3ccc(Sc4nc5ccccc5[nH]4)o3)S2)cc1	.	-20.0
118	COc1ccc(N2CCN(C(C)C(=O)N(C)c3ccccc3)CC2)cc1 (stereo not drawn)	.	-2.0
119	COc1ccc(CN=Cc2ccc(C(F)(F)F)cc2)cc1	-2.3	.
120	O=C(NCCc1ccccc1)c1cc2n(n1)C(C(F)(F)F)CC(c1ccc(Br)cc1)N2 (stereo not drawn)	0.4	4.0
121	O=C(NCc1ccco1)C1Sc2nnc(-c3ccccc3)n2NC1c1ccccc1 (stereo not drawn)	.	-21.0

Screens from PubChem BioAssay.

An excerpt. The share of hits here may be higher or lower than overall.
